Screens from PubChem BioAssay.
HCMV NEC inh – cytomegalovirus nuclear egress complex inhibition; HTRF UL50-UL53 interaction, normalized percent inhibition; inhibition, % (no concentration beside the values); 0.15% of 190,000 active; AID 1918969;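 active = both replicates at 50% or more, plus weaker picks with an unusually low signal ratio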;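 also: stock transfer was 100 nL into about 20 µL; 0% = negative control wells and 100% = wells with untagged competitor protein; inactives centre near -12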
* marks the source's active call; other numbers are inactive results; & = joins results of further samples.

Preview, 2 compounds:
SMILES | HCMV NEC inh
O=C(NCc1ccco1)c1sc2ccccc2c1Cl | -4.8
CC(C)C(O)P(=O)(OCc1ccccc1)c1ccc(N(C)C)cc1 (centres undefined) | -14.7

The listing, repeating the preview:
SMILES | HCMV NEC inh
O=C(NCc1ccco1)c1sc2ccccc2c1Cl | -4.8
CC(C)C(O)P(=O)(OCc1ccccc1)c1ccc(N(C)C)cc1 (centres undefined) | -14.7
COc1ccc2c(c1)CCc1cn3ncc(C#N)c3nc1-2 | -14.1
Cc1cc(-c2csc(Nc3ccc(C(=O)O)c(O)c3)n2)ccc1F | -31.2
CCOC(=O)CN1C(=O)/C(=C/c2ccc(Cl)cc2)Oc2ccc(C(C)(C)C)cc21 | 3.4
O=C(NCc1ccncc1)c1cc(C(=O)C2CC2)c[nH]1 | -9.7
CN(C)C(=O)c1cc(-c2[nH]ncc2-c2ccccc2)c[nH]1 | -35.3
c1ccc2[nH]c(CCc3nc4ccccc4s3)nc2c1 | -7.3
COc1ccccc1C(=O)NCCn1cc(SC(=N)N)c2ccccc21 | -5.8
CCOc1cccc2cc(C(N)=O)c(=Nc3ccccc3F)oc12 | -8.3
CC(C)c1cc(C(C)C)c(S(=O)NCCCN2CCOCC2)c(C(C)C)c1 (centres undefined) | 11.6
O=c1oc2c(CN3CCOCC3)c(O)ccc2cc1-c1ccccn1 | -54.6
O=C(Nc1nc2c(ccc3ccccc32)s1)C1CC1 | -17.5
CCC(=O)NCCc1nc2ccccc2n1CC | -21.0
CCN1CCN(Cc2ccc(NC(=O)c3cc(NC(=O)c4nccnc4N)cc(OC)c3)cc2C(F)(F)F)CC1 | -28.3
CCCCC(=O)NCCc1c(Cc2ccccc2)[nH]c2ccccc12 | -15.2
O=C(NC(O)C(=O)c1ccccc1)c1ccco1 (centres undefined) | -11.4
NC(=O)/C=C/C(=O)Nc1ccc(N2CCOCC2)cc1 | 3.7
O=C(Nc1ccccc1)c1ccc(S(=O)(=O)N2CCOCC2)cc1 | 13.8
CCN(CC)c1ccc2cc(C(N)=O)c(=N)oc2c1 | -52.2
N#C/C(=C/c1cccc(Oc2ncccn2)c1)c1ccccc1F | -15.0
O=C(Nc1n[nH]c(Cc2ccccc2)n1)N1CCN(c2ncccn2)CC1 | -16.8&-16.8
O=c1[nH]c2ccc(Br)cc2c(-c2ccccc2)c1N=Cc1ccccc1O | -14.5&-19.6
Nc1ccn(C2OC(CO)C(O)C2(F)F)c(=O)n1 (centres undefined) | -6.5
CCCCN(CCCC)CCC(O)c1cc2c(Cl)cc(Cl)cc2c2cc(C(F)(F)F)ccc12 (centres undefined) | -9.8
O=C(Oc1ccc(Cl)c2cccnc12)c1cccs1 | -32.4
Nc1ncc(-c2ccc(Cl)cc2Cl)cn1 | -14.5
CCn1c(CNC(=O)c2ccc(OC)cc2)nnc1SC(C)C | -21.4
CCCn1cc(SCC(=O)NC2CCCCC2)c2ccccc21 | -18.1
Cn1cnnc1Sc1c([N+](=O)[O-])ncn1C | -17.9
COc1ccccc1N(CC(O)CN1C(C)CCCC1C)S(=O)(=O)c1ccccc1 (centres undefined) | 3.2&-9.1
CC1(C)[C@@H](O)CC[C@@]2(C)[C@H]1CC[C@]1(C)[C@H]2C(=O)C=C2[C@H]3C[C@@](C)(C(=O)O)CC[C@]3(C)CC[C@]21C | 5.8
O=C(NO)c1cccc(C(F)(F)F)c1 | -3.1
c1ccc(-c2[nH]ncc2-c2ccnc3ccccc23)nc1 | -17.6&-6.5&-6.5&-0.1
COc1ccc(OCC(O)CNC(C)C)c(C(C)(C)C)c1 (centres undefined) | 10.8&-4.6
CCN1C(=O)N(Cc2cccc(OC)c2)C(=O)C12CCN(CC1CC=CCC1)CC2 (centres undefined) | 9.5

Random excerpt: 5 entries already listed
SMILES | HCMV NEC inh
COc1ccc(OCC(O)CNC(C)C)c(C(C)(C)C)c1 (centres undefined) | 10.8&-4.6
CCN1CCN(Cc2ccc(NC(=O)c3cc(NC(=O)c4nccnc4N)cc(OC)c3)cc2C(F)(F)F)CC1 | -28.3
CCOc1cccc2cc(C(N)=O)c(=Nc3ccccc3F)oc12 | -8.3
O=C(NO)c1cccc(C(F)(F)F)c1 | -3.1
CC(C)C(O)P(=O)(OCc1ccccc1)c1ccc(N(C)C)cc1 (centres undefined) | -14.7

Back to the main list with the 4 entries that preceded the break.
SMILES | HCMV NEC inh
O=C(NO)c1cccc(C(F)(F)F)c1 | -3.1
c1ccc(-c2[nH]ncc2-c2ccnc3ccccc23)nc1 | -17.6&-6.5&-6.5&-0.1
COc1ccc(OCC(O)CNC(C)C)c(C(C)(C)C)c1 (centres undefined) | 10.8&-4.6
CCN1C(=O)N(Cc2cccc(OC)c2)C(=O)C12CCN(CC1CC=CCC1)CC2 (centres undefined) | 9.5
Cc1ccc2nc(Cn3cnc4ccc(F)cc4c3=O)cn2c1 | -7.0
CC(C)Cc1nc2ccccc2n1C(C)C | -3.7
Brc1ccsc1-c1ccn[nH]1 | -4.3
c1nc(NC2CCCC2)c2[nH]cnc2n1 | -15.6
COc1cc(=C2C=c3ccccc3=N2)[nH]c1=Cc1[nH]c(C)cc1C | -33.8
C=C(C)Cn1c(CCCO)nc2ccccc21 | -3.5
Cc1ccc(C(=O)Nc2cccc(C(F)(F)F)c2)cc1NC(=O)c1ccno1 | -14.5
O=S(=O)(/N=C(\Nc1ccccn1)c1ccccc1)c1ccccc1 | -1.2
O=c1[nH]c(=O)c2[nH]c(=O)[nH]c2[nH]1 | -20.6
CCCCC/C=C\C/C=C\C/C=C\C/C=C\CCCC(=O)OCC | -13.0&-13.0
CCOC(=O)CCCN1C(=O)/C(=C/c2cccc(OC)c2)SC1=S | -3.9
CCOc1ccc(S(=O)(=O)N2CCN(c3ccc(F)cc3)CC2)cc1 | 8.2&-4.1
Cc1ccc2cc(CCNS(=O)(=O)c3ccccc3)c(=O)[nH]c2c1 | -18.0
O=C(Cc1ccccc1)Nc1nnc(SCc2cccc(F)c2)s1 | -13.9
COc1cc2c(cc1OC)CC(C)(C)N(C(=O)c1ccccc1)C2 | -4.8
CCn1c(=NC(=O)CSCC(=O)Nc2nccs2)sc2ccccc21 | -17.4
CN1CCN(Cc2ccc3sccc3c2)CC1CCO (centres undefined) | -21.2&-21.2
CN1c2cc(O)c(N=NC(N)=O)cc2CC1S(=O)(=O)O (centres undefined) | -92.7
O=C1CSC(=S)N1CC1CCCO1 (centres undefined) | 2.9
O=C(O)C1OC(Oc2cc3oc(-c4ccccc4)cc(=O)c3c(O)c2O)C(O)C(O)C1O (centres undefined) | -35.9
CC(C)(O)c1cn(C2CCN(C(=O)CCC(=O)N3CCCCCC3)CC2)nn1 | -22.4
CC1CN(CCCn2c3ccccc3c3ccccc32)CC(C)N1 (centres undefined) | -3.3
c1cc2c3c(c1)c1c(n3CCNC2)CCCC1 | -9.8
O=C(Oc1cccnc1I)c1ccccc1 | -13.1
OB(O)c1ccccc1 | -18.5
CC(=O)Nc1ccc2nc(NC(=O)C(C)(C)C)sc2c1 | -5.0
CC(C)(C)c1cn(C2CCN(C(=O)c3cnc4ccccc4n3)CC2)nn1 | 29.3&29.3
O=C1NC(=O)C(=Cc2ccc(-c3ccc(S(=O)(=O)N4CCNCC4)cc3)o2)C(=O)N1 | -27.8
CCn1c(CCNC(=O)c2ccc(OC)c(OC)c2)nc2ccccc21 | -7.7
Cc1ccc(C(=O)CC(c2ccco2)S(=O)(=O)c2ccccc2)cc1 (centres undefined) | 3.5
C=Cc1c(C)c2cc3nc(cc4[nH]c(cc5nc(cc1[nH]2)C(C)=C5CCC(=O)O)c(CCC(=O)O)c4C)[C@@]1(C)C3=CC=C(C(=O)OC)C1C(=O)OC (some centres undefined) | -19.0
CCN(CC)CCNC(=O)c1cc(Br)c(N)cc1OC | -11.9
O=C(O)/C=C/c1cccc(NC(=O)c2ccccc2)c1 | -33.6
COc1ccc(C2C(C#N)=C(N)SC3C(=O)N(c4ccc(C)cc4)C(=O)C32)cc1 (centres undefined) | -9.8
OCCCc1cn(CC2CCN(c3ncnc4nc[nH]c34)CC2)nn1 | -6.0&-6.0
CC(C)Sc1nnc(NC(=O)c2ccc3ccccc3c2)s1 | -21.1
CCCCCC/C=C/C=C\CCCCCCCC(=O)O | -2.8&-2.8
CC1(C)C=C(CN2CC(=Cc3ccc(F)cc3)C(=O)C(=Cc3ccc(F)cc3)C2)C(C)(C)N1O | 6.5
COc1ccc(C(=O)N2CCNC(=O)C2Cc2ccccc2)cc1F (centres undefined) | -11.1
COc1cc(C)c(C(C)C)cc1S(=O)(=O)N1CCCC(C)C1 (centres undefined) | -17.0
COC(=O)c1cc2ccccc2c(=O)s1 | -75.6
Nc1nc2c(ccc3ccccc32)s1 | -12.0
CCCCCCCCC(=O)NCc1cc(OC)c(O)cc1I | 6.6
CCC(=O)Nc1c2c(nn1-c1ccccc1)CSC2 | -9.3
O=C(CSC1CCCCC1)Nc1nccs1 | 6.2
CC12CCC(C(=O)N3CCc4ccccc4C3)(OC1=O)C2(C)C (centres undefined) | -7.6
Cc1nc(NC(=O)N2CCCC2C(N)=O)sc1-c1csc(C(C)(C)C)n1 (centres undefined) | -20.3
CCC(CC)C(=O)c1c[nH]c(C(=O)O)c1 | 0.7

Taken from above.
Under HCMV NEC inh, `COC(=O)c1cc2ccccc2c(=O)s1` has -75.6
Under HCMV NEC inh, `O=C(CSC1CCCCC1)Nc1nccs1` has 6.2
Under HCMV NEC inh, `Cc1nc(NC(=O)N2CCCC2C(N)=O)sc1-c1csc(C(C)(C)C)n1` (centres undefined) has -20.3
Under HCMV NEC inh, `CCC(CC)C(=O)c1c[nH]c(C(=O)O)c1` has 0.7
Under HCMV NEC inh, `Nc1nc2c(ccc3ccccc32)s1` has -12.0

Other results
SMILES | HCMV NEC inh
O=C(CSc1nc2ccccc2s1)Nc1ccc2c(c1)OCO2 | -13.4
COc1ccc2c(c1)CCN(C(=O)Nc1n[nH]c(-c3ccco3)n1)C2 | 38.8&38.8
Cn1cc(/C=C2\C(=O)Nc3ccc(S(N)(=O)=O)cc32)c2ccccc21 | 1.0
O=C(Nc1nccs1)c1ccc2c(c1)CCCC2 | 6.7
CC(C)n1cnc2c(N(C)c3ccccc3)nc(N(CCN(C)C)Cc3ccccc3)nc21 | -7.4
O=S(=O)(c1ccc(Cl)c(Cl)c1)N1CCn2c(nc3ccccc32)C1 | 11.4&-8.7
Cc1nn(C)cc1-c1ccnc(NCCc2nc(-c3ccccn3)no2)n1 | 5.9
CC(C)C1C(=O)N(C)CCN1C(=O)Nc1nc(-c2ccccc2)ns1 (centres undefined) | -5.4
Cc1ccn2cc(-c3cc4ccccc4oc3=O)nc2c1 | -21.8
COc1ccc(C2C(C#N)=C(N)OC(C)=C2C(=O)OCc2ccccc2)cc1 (centres undefined) | -19.4
O=C(/C=C/c1ccc(F)cc1)Nc1ccc(S(=O)(=O)N2CCCC2)cc1 | -6.2
Cc1cccc2c(C(=O)N3CCC(C)(C)C3)cc(-c3cnc(C4CC4)nc3)nc12 | -11.4
CCOC(=O)c1c(C)oc(N)c1C#N | -14.7
CCC(C)[C@H](NS(=O)(=O)c1cccc2ccccc12)C(=O)N[C@H](C=O)Cc1c[nH]c2ccccc12 (some centres undefined) | -4.6
O=C(/C=C\c1ccccc1)Nc1nnc(-c2ccc(Cl)cc2)s1 | 6.0&-7.9
COc1cccc(NC(=O)c2ccc(S(=O)(=O)N3CCCC3)cc2)c1 | -3.2
O=Cc1cccc2[nH]ccc12 | -18.6&-18.6
O=C(/C=C/c1ccco1)Nc1ccc(Nc2ccccc2)cc1 | -2.8
O=C(CC1SC(=O)NC1=O)Nc1nccs1 (centres undefined) | -3.0
CCc1ccc(NC(=O)CSc2nccn2-c2ccccc2)cc1 | -16.6
C/C=C\C(=O)NCc1ccc2[nH]c3c(c2c1)CCCC3 | -7.3
CCCCCCCCCC(=O)OC[C@H](CO)OC(=O)CCCCCCCCC | -17.5&-17.5
O=C(Nc1nnc(-c2cccs2)o1)c1ccccc1 | 2.8
N#C/C(=C\c1ccc(O)c(O)c1)C(N)=O | -63.7
CC1(C)[C@@H](OC(=O)CCC(=O)O)CC[C@]2(C)[C@H]3C(=O)C=C4[C@@H]5C[C@@](C)(C(=O)O)CC[C@]5(C)CC[C@@]4(C)[C@]3(C)CC[C@@H]12 | -29.2
COc1ccccc1Oc1ncnc2sc(-c3ccccc3)cc12 | -16.9
CN1C(C(=O)Nc2ccccn2)=C(O)c2sc(Cl)cc2S1(=O)=O | -17.0&-68.4
CCCCC/C=C\C/C=C\CCCC/C=C\CCCC(=O)O | -24.7&-24.7
Cc1noc(C)c1CSc1ncnc2sc3c(c12)CCC3 | -5.8

These rows are one share of the data. The share of hits here may be higher or lower than overall.
